From PubChem
TRPML1 agonist – agonists of human TRPML1 channel; Q9GZU1; TRPML1-expressing cells, Ca2+ dye fluorescence, FDSS; host cell line not named in the record; reference of the full effect not given here; activation, % (no concentration beside the values); 0.12% of 410,000 active; in the data active = activation above about 50%; inconclusive = about 30% to 50%; inactive = below about 30%; further: 0% is about no effect; the text of the record puts the active cut at 80%
Target sequence (Q9GZU1 whole entry, looked up): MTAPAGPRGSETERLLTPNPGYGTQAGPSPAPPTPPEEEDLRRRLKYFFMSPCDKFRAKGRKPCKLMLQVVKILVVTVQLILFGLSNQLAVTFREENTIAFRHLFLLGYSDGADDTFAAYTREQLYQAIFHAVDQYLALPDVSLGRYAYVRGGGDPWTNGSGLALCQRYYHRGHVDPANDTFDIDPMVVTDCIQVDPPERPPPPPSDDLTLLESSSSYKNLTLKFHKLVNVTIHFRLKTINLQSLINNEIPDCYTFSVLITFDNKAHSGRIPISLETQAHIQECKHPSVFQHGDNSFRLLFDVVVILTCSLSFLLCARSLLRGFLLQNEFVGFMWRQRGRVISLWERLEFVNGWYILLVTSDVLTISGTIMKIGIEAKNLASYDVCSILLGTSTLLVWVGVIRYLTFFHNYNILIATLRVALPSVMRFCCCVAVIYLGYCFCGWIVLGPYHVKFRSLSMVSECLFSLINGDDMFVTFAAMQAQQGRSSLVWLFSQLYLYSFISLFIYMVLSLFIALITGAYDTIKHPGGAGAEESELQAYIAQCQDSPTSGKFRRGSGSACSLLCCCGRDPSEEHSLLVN
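Tet-induced TRPML1-DL cells, 1,500 per well, cultured overnight, were loaded with a no-wash Ca2+ dye for 45–90 min. Calcium fluorescence was recorded on the FDSS for 110 s after compound addition, before the EC80 agonist (4 uM 54-4) was added.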
TRPML1 blocker – inhibitors of human TRPML1 channel | 0.02% of 390,000 active | TRPML1-inducible cells, Ca2+ dye fluorescence, FDSS; hits give low values; inhibition of EC80 agonist-evoked calcium signal | activity change, negative = inhibition, % (no concentration beside the values) | Q9GZU1 | AID 624415; in the data active means activity change below about -50%; inconclusive means about -30% to -50%; inactive means above about -30%;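 further: stimulus is agonist 54-4 at its EC80 concentration; on the % scale 0 is the no-effect control and ±100 the full control effect; compound concentration not given in the record; the text of the record puts the active cut at -80%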
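Tet-induced TRPML1-DL cells loaded with Ca8 no-wash calcium dye were read kinetically on FDSS. Compound addition was followed by EC80 agonist 54-4 (4 uM final); inhibition was read over 110 s.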
D2 ag – agonists of human D2 dopamine receptor (beta-arrestin) | P14416 | DiscoveRx PathHunter D2 beta-arrestin, luminescence, 90 min; 100% = 57 uM dopamine signal | activation, % (test concentration not listed) | 0.084% of 360,000 active | AID 624465; in the data active = activation above about 40%; inconclusive = about 15% to 40%; inactive = below about 15%; further: compound concentration not given in the record; the text of the record calls up to 30% inactive
Target sequence (P14416 whole entry, looked up): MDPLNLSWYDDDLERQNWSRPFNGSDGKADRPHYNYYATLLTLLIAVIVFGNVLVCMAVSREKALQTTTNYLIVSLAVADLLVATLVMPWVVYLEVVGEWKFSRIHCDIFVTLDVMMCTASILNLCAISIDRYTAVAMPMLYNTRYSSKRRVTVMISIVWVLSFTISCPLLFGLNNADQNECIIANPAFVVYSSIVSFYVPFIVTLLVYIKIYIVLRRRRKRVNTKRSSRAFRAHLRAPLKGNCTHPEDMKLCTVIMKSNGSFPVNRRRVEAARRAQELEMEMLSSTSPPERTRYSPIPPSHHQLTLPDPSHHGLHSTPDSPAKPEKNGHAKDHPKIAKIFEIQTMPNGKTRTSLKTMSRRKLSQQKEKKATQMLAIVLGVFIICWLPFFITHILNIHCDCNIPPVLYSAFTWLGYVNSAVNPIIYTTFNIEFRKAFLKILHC
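DiscoveRx PathHunter D2 beta-arrestin cells (2,100/well) attached overnight, then compound-stimulated 90 min at 37 C in HBSS/10 mM HEPES/0.1% Tween-20 buffer; beta-galactosidase complementation read by luminescence after 1 h at ambient temperature. Dopamine 57 uM final (EC100) as control.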
Six1-Eya2 blk – blocks human Six1 binding to Eya2; AlphaScreen GST-Six1/His-Eya2 binding, biochemical; hits give low values; control for the full effect not named in the record; 0.56% of 360,000 active; Q15475+O00167; activity change, % (test concentration not listed); in the data active = activity change below about -65%; inconclusive = about -30% to -65%; inactive = above about -30%; further: on the % scale 0 is the no-effect control and ±100 the full control effect; compound concentration not given in the record
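Homogeneous AlphaScreen proximity assay pairing GST-Six1 with His-tagged Eya2 (added as 5X mix: 250 nM and 500 nM) in 50 mM Tris pH 8.0, 300 mM NaCl, 1 mM TCEP. Glutathione donor and nickel acceptor beads; 1 h, 37 °C, dark.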
PINK1 modulator – PINK1 expression modulation; 0.2% of 410,000 active; PINK1 immunofluorescence, high-content cytometry, 24 h; Potency, µM (top dose mostly 76.6 µM), for inactives: at the top dose activation (PINK1 increase), most hits filed as activators; active = well fitted activation curve with a large enough effect; inconclusive = small, poorly fitted or top-dose-only effect; inactive = flat fitted curve, though single readings scatter; cell line not stated here;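 further: potency means the concentration at half of the fitted maximal effect; % of control where 0% means no effect; nearly all actives have a fitted effect of over 65% in size; a mitochondrial uncoupler was the plate control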
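Readout is PINK1 immunofluorescence, quantified alongside mitochondrial, cell and nuclear markers by laser-scanning microplate cytometry. Cells from a stable line were exposed to compound titrations (5 concentrations) for 24 hours, with CCCP controls.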
D2 PAM – positive allosteric modulators of human D2 dopamine receptor. P14416. DiscoveRx D2 beta-arrestin cells, luminescence, 90 min; 100% = 57 uM dopamine signal. potentiation, % (test concentration not listed). 0.23% of 360,000 active. AID 624464; active = potentiation of 50% or more; inconclusive = 30% to 50%; inactive = 30% or less;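 further: compound concentration not given in the record; tested on top of an EC20 dose of dopamine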
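PathHunter beta-arrestin assay in DiscoveRx D2 cells. Compounds were added with an EC20 of dopamine (50 nM final) for 90 min at 37 deg C. Luminescence was read 1 h after detection reagent, with 57 uM dopamine as the EC100 control.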
* = called active by the depositor; ? = inconclusive; . = no result given; [ ] = remark or other dose. An unsorted share of the library; overall some 1% were active at least once.

SMILES	TRPML1 agonist	TRPML1 blocker	D2 ag	Six1-Eya2 blk	PINK1 modulator	D2 PAM
O=C(Nc1nc(-c2cccnc2)cs1)c1ccccc1[N+](=O)[O-]	0.5	21	4.3	4	0.2%	8
N/C(=N\OC(=O)c1ccccc1)c1cccnc1	0.8	4	?	7	-0.7%	5
CC(C)NC(=O)Nc1ccc2c(c1)C(=O)N([C@@H](C)CO)C[C@H](C)[C@H](CN(C)S(=O)(=O)c1ccccc1)OCCCC[C@H](C)O2	-0.3	-1	-2.7	-2	2.1%	-4
CC(C)CN1C(=O)c2ccc(C(=O)Nc3ccccc3C(=O)O)cc2C1=O	1.9	28	5.1	-13	2.8%	13
CCOC(=O)c1oc2ccccc2c1NC(=O)COc1cccc(OC)c1	0.6	10	-2.8	2	?	-3
COc1cccc(NC(=O)c2ccc3c(c2)CCCC3)c1	0.2	5	-0.2	8	0.5%	-20
CS(=O)(=O)c1ccc(Nc2nc(C(N)c3ccccc3Cl)cs2)cc1 (configuration not stated)	-0.3	.	-2.9	0	1.4%	-4
N#Cc1ccccc1NC(=O)CN1C(=O)NC(Cc2c[nH]c3ccccc23)C1=O (configuration not stated)	-0.3	4	-10	-4	4.4%	-13
COC(=O)c1cc2c(C(F)(F)F)nn(C)c2s1	0.8	49	-5.5	0	1.5%	-3
CC1(C)CC(=O)c2cc(C(=O)NCc3ccco3)c(=O)n(-c3ccccc3)c2C1	-0.3	-10	-5.6	0	-0.8%	-9
Cc1ccc(CNS(=O)(=O)c2cc3c4c(c2)C(C)C(=O)N4CCC3)cc1 (configuration not stated)	-0.8	-2	4.8	0	-1.1%	-4
O=C(Cn1cc(C(=O)C2CC2)c2ccccc21)NCc1ccc2c(c1)OCO2	0.0	5	0.5	-1	-1.0%	-3
COC(=O)CCCNC(=O)c1ccc(S(=O)(=O)NCc2ccco2)cc1	-0.6	4	0.3	1	3.8%	-17
CC1CCCCC1NC(=O)CCCc1nc2ccccc2c(=O)[nH]1 (configuration not stated)	1.2	30	-0.1	-3	2.3%[38.3 µM]	1
CCOc1ccc(CC(=O)Nc2ccc(S(=O)(=O)Nc3cc(C)on3)cc2)cc1OCC	0.5	-27	-2.4	-23	1.0%	-3
CCC(NC(=O)CCCc1ccccc1)c1ccccc1 (configuration not stated)	0.9	55	-4.6	4	0.5%	14
Cc1cccc(CN2CCN(C3CN(Cc4cn(Cc5ccccc5)nn4)S(=O)(=O)C3)CC2)c1 (configuration not stated)	-1.2	.	.	-3	0.2%	.
Cc1cccc(NC(=O)c2cc(NC(=O)CCCC(=O)O)ccc2Cl)n1	1.6	23	-4.4	0	-1.3%[38.3 µM]	-4
C=CCn1c(=O)c(C(=O)Nc2ncccc2O)c(O)c2ccccc21	0.2	-8	3.1	-9	4.5%	5
Cc1ccc(N(Cc2cccs2)C(=O)c2ccccc2)cc1	0.0	7	.	.	1.5%	.
Cc1cccc(N2C(=O)CC(N3CCN(Cc4ccc(Cl)cc4)CC3)C2=O)c1 (configuration not stated)	1.4	11	-1.3	4	0.5%	-10
O=C(/C=C/c1cccc([N+](=O)[O-])c1)N1CCN(c2ccccc2F)CC1	1.7	9	-2.3	-9	-0.3%	-15
O=C(Nc1nc2ccc(C(=O)N3CCCCC3)cc2s1)C1CCCCC1	-0.5	-17	0.5	-3	6.4%	2
CCOC(=O)N1CCN(C(=O)CSc2nnc(-c3ccc(C(C)(C)C)cc3)o2)CC1	-0.1	-8	-0.7	2	5.5%	1
CCOCCCn1c(SCC(=O)Nc2cc(OC)ccc2OC)nc2ccccc2c1=O	.	.	0.8	-2	2.5%	?
SMILES	TRPML1 agonist	TRPML1 blocker	D2 ag	Six1-Eya2 blk	PINK1 modulator	D2 PAM
Cc1cc(/C=C(\C#N)C(=O)NCc2ccco2)c(C)n1C1CCCC1	1.7	-3	-1.5	-23	-1.4%	10
CS(=O)(=O)c1ccc(C(=O)NNC(=O)c2cccs2)cc1	0.2	-15	5.7	6	-0.7%	-5
Cc1cc(S(=O)(=O)Nc2ccc(C(=O)NCC3(N4CCCCC4)CCCCC3)cc2)ccc1F	-0.7	5	-1.9	0	5.4%	-7
COc1ccc(CNc2nn3c(-c4cccc(C(=O)N(C)C)c4)cnc3s2)cc1	-1.2	.	6.8	-20	0.6%	6
C[C@H]1CN([C@@H](C)CO)S(=O)(=O)c2ccc(Br)cc2O[C@@H]1CN(C)C(=O)Cc1ccccc1	.	.	0.2	3	0.0%	.
CCOC(=O)c1ccc(Nc2nn3c(=O)c4ccccc4nc3s2)cc1	0.4	-18	.	.	-0.3%	.
O=C(OC1Cn2c(=O)ccc(=O)n2C1)c1ccccc1	0.0	-15	-2.0	2	0.9%	-8
O=C(Nc1ccc(Oc2cccnc2)cc1)C1CCN(Cc2cc(Cl)ccc2O)CC1	0.2	-8	-5.4	?	2.6%	-16
COC(=O)c1sccc1NC(=O)Nc1cccc(C)c1	1.6	-5	-0.2	-4	1.3%	-6
O=C(COc1ccc(F)cc1)Nc1nc2c(s1)CCCC2	0.3	14	10	2	1.5%	-24
N/C(=N\OC(=O)c1ccc2c(c1)OCO2)c1ccncc1	.	.	?	-7	0.3%	?
CCCCn1nnnc1C(c1ccccc1)N1CCN(CC)CC1 (configuration not stated)	-0.1	.	.	12	-0.8%	.
FC(F)(F)c1nc2ccccc2nc1N/N=C/c1c(Cl)cccc1Cl	1.5	7	0.3	-18	16%	2
COc1cc(OC)cc(C(=O)NNC(=O)CCCOc2ccccc2)c1	0.2	4	4.3	-2	-1.3%	8
COc1ccc(-c2ccc(C#N)c(SCC(=O)OCc3ccccc3)n2)cc1OC	2.5	8	2.0	34	2.0%	4
COc1ccc(NC(=O)Cn2cnc3c(cnn3-c3ccc(C)c(C)c3)c2=O)c(OC)c1	0.2	8	-4.9	-4	9.5%	11
COc1ccccc1C(=O)NCCC(=O)NCC(c1ccco1)N1CCCCC1 (configuration not stated)	0.8	-1	1.1	10	-0.4%	-17
Cc1ccc2nc3c(c(C(=O)OC4CCOC4=O)c2c1)CCCC3 (configuration not stated)	0.2	-1	-4.9	-3	0.8%	-13
CCOC(=O)CNS(=O)(=O)CCN1C(=O)c2ccccc2C1=O	4.3	-2	-0.6	5	0.0%[38.3 µM]	-12
Cc1cc(C)n2nc(SCC(=O)N(CC(C)C)c3c(N)n(CC(C)C)c(=O)[nH]c3=O)nc2n1	-0.3	-20	-3.8	-1	0.5%	-9
COc1ccc(NC(=S)NC(=O)/C=C/c2ccco2)cc1	0.9	-11	-3.6	-10	6.8%	-2
CCCn1c(=O)c(C(=O)Nc2ccccc2N)c(O)c2ccccc21	-0.3	-4	-2.4	3	1.7%	1
COCCCNC(=S)N1CCCN(c2nc3c(C)c(C)ccc3cc2C#N)CC1	0.3	-12	-0.6	6	2.5%	0
Cc1ccnc2ccc(SC(F)(F)F)cc12	-0.6	12	-0.8	5	0.8%	-3
O=C(NN1CCOCC1)c1cc(Cl)ccc1Cl	-0.4	-13	1.2	2	0.7%	-7
SMILES	TRPML1 agonist	TRPML1 blocker	D2 ag	Six1-Eya2 blk	PINK1 modulator	D2 PAM
CC(=O)Nc1cccc(C(=O)NN2C(=O)NC3(CCC(C)CC3)C2=O)c1 (configuration not stated)	-0.6	-21	0.7	-1	0.5%	-8
N/C(=N\OC(=O)c1ccc2ccccc2c1)c1ccccn1	-0.6	16	?	-7	-2.8%	14
CCOc1cc(C(=O)NC(C)C2CCCO2)cc(OCC)c1OCC (configuration not stated)	0.4	2	-6.6	-11	2.1%	-6
C[C@@H]1CCC[C@@]2(O[C@@H](CCO)C[C@H](O)[C@H]2O)O1	-0.5	7	-4.0	-5	0.7%	-14
CCOc1cccc(CNc2ccc(O)cc2)c1OCc1ccc(Cl)cc1Cl	0.3	37	15	18	13%	-1
Cc1ccc(S(=O)(=O)N2CCN(C(=O)c3ccc(OCc4c(C)noc4C)cc3)CC2)cc1	1.2	-18	-1.0	4	-1.6%	-13
COc1ccc(-n2nc(C(=O)N3CCCCC3)c3ccccc3c2=O)cc1	1.5	16	-0.3	7	-2.2%	-12
CCc1cccc(C)c1NC(=O)CSc1nnc(CCCOc2ccc(Cl)cc2Cl)n1C	3.1	9	-1.0	13	0.9%	-2
CC1Cc2cc(/C(O)=C3/C(=O)C(=O)N(CCN4CCOCC4)C3c3cccc(O)c3)ccc2O1 (configuration not stated)	1.2	-8	-0.6	2	0.1%	1
COc1ccc(CCNC(=O)CN(C)S(=O)(=O)c2cccs2)cc1	-0.1	7	-2.9	5	0.6%	6
COc1ccc(NC(=O)C2=C(C)Nc3nc(CCCO)nn3C2c2ccc(O)cc2)cc1 (configuration not stated)	-0.2	-6	.	.	0.2%	.
CCn1nc2cc(C(=O)NCCc3cccs3)ccc2c1OC	-0.3	11	1.0	-1	-0.2%	-5
O=C(NCc1ccccc1)C(c1ccc(F)cc1)N(Cc1cccs1)C(=O)c1cnccn1 (configuration not stated)	-0.1	22	1.5	3	2.0%	-4
CCCCc1c(O)nc(SCC(=O)c2ccccc2)n(-c2ccccc2C)c1=O	-0.5	-4	-1.9	-25	-2.0%	12
CSC1=NCCN1S(=O)(=O)c1ccc(F)cc1	0.3	-1	1.8	-2	0.0%	-6
CC(=O)Nc1ccc(Cl)cc1C(=O)c1ccc[nH]1	-0.9	-5	-6.9	1	0.4%	-8
CC(C)(C)NCCOCCOc1ccccc1-c1ccccc1	-0.6	4	-3.4	25	1.2%	-47

No new results follow: seven of the compounds above.
SMILES	TRPML1 agonist	TRPML1 blocker	D2 ag	Six1-Eya2 blk	PINK1 modulator	D2 PAM
COc1ccc(NC(=O)C2=C(C)Nc3nc(CCCO)nn3C2c2ccc(O)cc2)cc1 (configuration not stated)	-0.2	-6	.	.	0.2%	.
CCn1nc2cc(C(=O)NCCc3cccs3)ccc2c1OC	-0.3	11	1.0	-1	-0.2%	-5
O=C(NCc1ccccc1)C(c1ccc(F)cc1)N(Cc1cccs1)C(=O)c1cnccn1 (configuration not stated)	-0.1	22	1.5	3	2.0%	-4
CCCCc1c(O)nc(SCC(=O)c2ccccc2)n(-c2ccccc2C)c1=O	-0.5	-4	-1.9	-25	-2.0%	12
CSC1=NCCN1S(=O)(=O)c1ccc(F)cc1	0.3	-1	1.8	-2	0.0%	-6
CC(=O)Nc1ccc(Cl)cc1C(=O)c1ccc[nH]1	-0.9	-5	-6.9	1	0.4%	-8
CC(C)(C)NCCOCCOc1ccccc1-c1ccccc1	-0.6	4	-3.4	25	1.2%	-47

In a second layout: entries from further up
mol,TRPML1 agonist,TRPML1 blocker,D2 ag,Six1-Eya2 blk,PINK1 modulator,D2 PAM
CC(=O)Nc1cccc(C(=O)NN2C(=O)NC3(CCC(C)CC3)C2=O)c1 (configuration not stated),-0.6,-21,0.7,-1,0.5%,-8
CCCCc1c(O)nc(SCC(=O)c2ccccc2)n(-c2ccccc2C)c1=O,-0.5,-4,-1.9,-25,-2.0%,12
